Rango-impB inh: qHTS Assay for Inhibitors of Rango (Ran-regulated importin-beta cargo) - Importin beta complex formation; 340,000 compounds, 0.031% hits; AID 540263, 2011; Rango CFP/YFP FRET sensor + importin beta, 45 min; Importin subunit beta-1 (Homo sapiens), Q14974; Potency, µM (doses to about 92.2 µM), for the others: at the top dose inhibition of complex formation; active = rising FRET ratio curve, often small or poorly fitted; inconclusive = mostly compound fluorescence or quenching in the first reads; inactive = flat curves in all reads;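 further: potency means the concentration at half of the fitted maximal effect; 0% = DMSO wells and 100% = buffer wells lacking importin beta; nearly all actives have a fitted effect of over 15% in size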
Target sequence (Q14974 whole entry, looked up): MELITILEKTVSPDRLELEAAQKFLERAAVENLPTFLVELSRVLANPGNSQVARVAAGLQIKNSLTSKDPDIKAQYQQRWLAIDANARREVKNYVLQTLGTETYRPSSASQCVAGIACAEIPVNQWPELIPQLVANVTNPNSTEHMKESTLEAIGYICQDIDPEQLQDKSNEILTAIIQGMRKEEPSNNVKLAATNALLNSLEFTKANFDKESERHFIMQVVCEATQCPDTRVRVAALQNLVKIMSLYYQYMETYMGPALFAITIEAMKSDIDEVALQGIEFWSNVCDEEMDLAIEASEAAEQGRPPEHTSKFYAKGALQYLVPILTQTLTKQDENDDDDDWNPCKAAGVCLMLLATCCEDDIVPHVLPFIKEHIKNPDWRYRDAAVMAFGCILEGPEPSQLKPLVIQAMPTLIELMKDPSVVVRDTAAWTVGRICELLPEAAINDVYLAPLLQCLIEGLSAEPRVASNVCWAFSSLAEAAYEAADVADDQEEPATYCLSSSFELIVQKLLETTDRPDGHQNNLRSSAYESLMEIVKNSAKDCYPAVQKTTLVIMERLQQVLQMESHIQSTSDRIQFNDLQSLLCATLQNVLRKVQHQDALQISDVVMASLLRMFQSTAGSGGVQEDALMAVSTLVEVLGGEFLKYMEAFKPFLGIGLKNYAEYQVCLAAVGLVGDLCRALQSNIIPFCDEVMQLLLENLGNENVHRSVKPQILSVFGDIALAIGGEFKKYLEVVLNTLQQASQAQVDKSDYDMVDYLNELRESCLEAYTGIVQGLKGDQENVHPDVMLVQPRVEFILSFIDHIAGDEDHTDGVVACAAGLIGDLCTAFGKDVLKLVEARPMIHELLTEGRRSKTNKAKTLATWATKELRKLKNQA
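Inhibition scored from the CFP 486 nm/YFP 530 nm FRET ratio 45 min after adding 0.125 microM importin beta to 50 nM Rango biosensor preincubated 5 min with compound (room temperature, PBS with DTT, Tween-20, BSA). No-importin wells as positive control.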
GLA inh pH 4.5: qHTS Assay for Inhibitors of Human alpha-Galactosidase at pH 4.5; Alpha-galactosidase A (Homo sapiens), P06280; purified enzyme, 4-MU-alpha-Gal fluorescence, pH 4.5; 230,000 tested, under 10 active; activity change, negative = inhibition, % at 105 µM; AID 1467, 2008; inconclusive = small, poorly fitted or top-dose-only inhibition, or a rising curve; inactive = flat fitted curve, though single readings scatter; no compound was filed as active;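 further: 0% = full activity with enzyme and -100% = basal without enzyme; dose as in the result columns while the protocol names 77 µM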
Rango release inh: qHTS Assay for Inhibitors of RanGTP induced Rango (Ran-regulated importin-beta cargo) - Importin beta complex dissociation; 340,000 compounds, 0.071% hits; Biochemical FRET Rango-importin beta, RanGTP-induced dissociation; Potency, µM (doses to about 46.1 µM), for inactives: at the top dose activity change, negative = inhibition; Snurportin-1 (Homo sapiens) + GTP-binding nuclear protein Ran (Homo sapiens) + Importin …; active means falling FRET ratio curve, often poorly fitted, with flat reads before Ran was added; inconclusive means other falling curves, or compound fluorescence or quenching; inactive means flat or rising ratio curve;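 further: potency means the concentration at half of the fitted maximal effect; % of control where 0% means no effect; nearly all actives have a fitted effect of over 45% in size; -100% = wells without RanGTP and RCC1; the record marks most hits as doubtful in a second field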
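Compounds preincubate 5 min with complex of recombinant Rango and importin beta in PBS with 1 mM DTT. Ran (0.6 uM) loaded with 2 mM GTP plus 0.2 uM RCC1 starts dissociation; FRET is recorded 45 min later.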
miR-21 reporter: qHTS Assay for Modulators of miRNAs and/orActivators of miR-21; AID 2288, 2010; Potency, µM (titrated, usually from 38.3 µM), for inactives: top-dose reporter change, positive = more light; HeLa miR-21 FLuc reporter, luciferase, 48 h; 340,000 tested, under 10 active; active = well fitted rising curve with a large enough effect; inconclusive = small, poorly fitted or top-dose-only effect; inactive = no such curve, though single readings can be large or run the other way;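 further: % of control where 0% means no effect; miR-21 action dims this reporter so a rising signal means less miR-21 action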
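Using DMEM plus 10% FBS, HeLa miR-21-FLuc cells are incubated with test compounds (final up to about 40uM) for 48 hours; firefly luciferase signal is then imaged following reagent-mediated lysis.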
The depositor's hits bear a star; ? = inconclusive; . = no result given; & = joins results of further samples.

SMILES	Rango-impB inh	GLA inh pH 4.5	Rango release inh	miR-21 reporter
O=C(NCc1ccncc1)C1=NN(c2ccccc2)C(=O)CC1	-4.5%	3	3%	1%
C=CCn1c(SCC(=O)NC(=O)c2cccn2C)nc2ccccc2c1=O	2.8%	8	-5%	0%
O=C(NCCNC(=O)c1ccccc1[N+](=O)[O-])c1ccccc1[N+](=O)[O-]	1.8%	.	2%	.
COc1ccc(CC(=O)NCc2nn(-c3ccccc3)nc2C)cc1OC	-0.4%	-1	-19%	0%
CCOC(=O)CSc1nc2sccc2c(=O)[nH]1	-0.2%	-1	-1%	-2%
N/C(=N\OC(=O)c1ccc2c(c1)OCO2)c1ccncc1	1.4%	-5	-8%	-50%
CCOC(=O)C1(Cc2cccc(OC)c2)CCCN(S(=O)(=O)CC)C1 (centres undefined)	-3.4%	.	1%	0%
CC(C)CN(C(=O)CSc1ncnc2sccc12)C1CCS(=O)(=O)C1 (centres undefined)	0.1%	.	-9%	.
CC(C)Cn1c(=O)c(CCC(=O)Nc2ccc(N3CCOCC3)cc2)nc2cc(Cl)ccc21	0.4%	.	-11%	-2%
COc1ccc(NC(=O)c2ccc(-c3ccc(C(C)=O)cc3)o2)cn1	-0.1%	.	-2%	.
CCOc1cc(C(=O)N=c2sccn2C)ccc1OC(F)F	1.6%	.	1%	-43%
COc1ccc(S(=O)(=O)N(C)C)cc1NC(=O)CCNC(=O)c1ccco1	-0.1%	.	-11%	-3%
O=C(COc1ccccc1)NCC1COc2ccccc2O1 (centres undefined)	-1.2%	.	22%	0%
Cc1nnc(SCC(C)C)[nH]c1=O	0.3%	-5	-2%	-3%
O=C(CSC1=NS(=O)(=O)c2cc(F)ccc2N1)Nc1ccc(F)cc1	-1.7%	.	-9%	.

4 neighbouring records already listed:
SMILES	Rango-impB inh	GLA inh pH 4.5	Rango release inh	miR-21 reporter
O=C(NCc1ccncc1)C1=NN(c2ccccc2)C(=O)CC1	-4.5%	3	3%	1%
C=CCn1c(SCC(=O)NC(=O)c2cccn2C)nc2ccccc2c1=O	2.8%	8	-5%	0%
O=C(NCCNC(=O)c1ccccc1[N+](=O)[O-])c1ccccc1[N+](=O)[O-]	1.8%	.	2%	.
COc1ccc(CC(=O)NCc2nn(-c3ccccc3)nc2C)cc1OC	-0.4%	-1	-19%	0%

Remaining list, next part
SMILES	Rango-impB inh	GLA inh pH 4.5	Rango release inh	miR-21 reporter
CCc1c(C)n2nc(C)cc2[nH]c1=O	-1.4%	3	31%	1%
Cc1nc2nc(C)c(CCC(=O)NC(C)c3ccc4c(c3)OCCO4)c(C)n2n1 (centres undefined)	2.3%	-24	4%	1%
CS(=O)(=O)N(CC(=O)NCCSCc1ccccc1Cl)c1ccc(F)cc1	0.4%	.	-2%	13%
COc1cccc(NC(=O)C2CC(=O)N/C(=N/NC(=O)c3ccc(C)cc3)S2)c1 (centres undefined)	2.4%	4	-20%	0%
COc1cc(C(=O)Nc2ccc(S(=O)(=O)Nc3cc(C)nc(C)n3)cc2)cc(OC)c1OC	-0.1%	2	?	6%
COC(CNC(=O)c1ccc(N2CCc3ccccc32)c([N+](=O)[O-])c1)OC	-0.9%	-4	2%	1%
O=C(NCCCNCc1ccccc1)c1ccccn1	-2.1%&-8.4%	5	4%&-2%	-4%
CC(C)(C)c1ccc(C(=O)NNC(=O)CNC(=O)c2cccs2)cc1	-1.6%	.	-1%	.
Cc1ccc(C)c(S(=O)(=O)N2CCN(C(=O)CCCc3c[nH]c4ccccc34)CC2)c1	4.2%	.	-1%	.
COc1ccc2[nH]c(C)c(CCN(Cc3cccs3)C(=S)Nc3cccc(F)c3)c2c1	?	3	0%	13%
O=C(N/N=C/c1cccnc1)c1ccccc1Br	-5.4%	.	-2%	0%
Cn1c(=O)c2c(ncn2CC(O)CNc2ccc(Cl)cc2)n(C)c1=O (centres undefined)	3.8%	-7	2%	-1%
COc1ccc(C(=O)NCc2ccccn2)cc1	-0.9%	-3	24%	-23%
O=C(Nc1ccc(-c2nnc3n2CCCCC3)cc1)c1cnccn1	1.4%	4	13%	-8%
COc1cc(NC(=O)COc2ccc(-n3ccnc3)cc2)cc(OC)c1	4.2%	4	0%	12%
O=C1Nc2ccc(Br)cc2/C1=N\N=C\C1=C(N2CCOCC2)C(=C/c2ccccc2)/CC1	6.7%	.	14%	.
COc1ccccc1-n1nnnc1SCC(=O)Nc1oc(C)c2c(C)n[nH]c(=O)c12	-2.1%	.	3%	.
CCN1C(=O)/C(=c2\s/c(=C3\Sc4ccccc4N3C)c(=O)n2C)N(C)C1=S	.	1	.	-25%
O=C1CN(C(=O)c2cccc([N+](=O)[O-])c2)CC(=O)N1	3.3%	.	4%	-5%
CC(=O)C1=C(O)C(=O)N(CCc2ccccc2)C1c1ccccc1[N+](=O)[O-] (centres undefined)	-0.8%	-4	12%	-1%
COC(=O)/C(=N/Nc1cccc(C)c1)N1CCCc2ccccc21	0.7%	-10	10%	-16%
O=c1[nH][nH]c2cc([N+](=O)[O-])ccc12	0.9%	.	0%	.
CC(C)S(=O)(=O)c1csc(C(=O)NN)c1Cl	2.1%	2	1%	3%
Cc1ccc(-c2csc3ncnc(SCc4ccc(C(=O)O)cc4)c23)cc1	-0.3%	-10	1%	-8%
COc1ccc(C)cc1S(=O)(=O)N1CCN(C(=O)c2ncoc2-c2ccccc2C)CC1	-4.1%	.	-7%	-2%
COc1ccc(S(N)(=O)=O)cc1N(C)S(=O)(=O)c1ccccc1	0.1%	4	-2%	-3%
O=C(O)c1ccc(/C=N/Nc2cccc(C(F)(F)F)c2)cc1	?	-7	-14%	-68%
CCN(CC)S(=O)(=O)c1cccc(C(=O)c2c(C)cc3ccccn23)c1	0.7%	5	13%	10%
O=C(NC(=S)Nc1ccc(CN2CCCCC2)cc1)c1ccco1	6.0%	-7	45%	-12%
O=C(c1ccc(N2CCCS2(=O)=O)cc1)N1CCN(c2ccc(F)cc2)CC1	8.0%	.	24%	-2%
CCC(=O)Nc1sc2c(c1C(N)=O)CCN(C(C)=O)C2	4.4%	-4	5%	11%
O=c1c(C=Nc2ccc(Oc3ccccc3)cc2)c[nH]n1-c1cccc(Cl)n1	-4.5%	-5	-5%	0%
Cc1ccc(Cl)cc1NC(=O)c1cccc(OC(F)F)c1	0.6%	4	13%	-18%
COCCn1nnnc1C(c1ccccc1OC)N1CCN(c2ccccc2)CC1 (centres undefined)	7.6%	-5	5%	-5%
Cc1cc(Oc2ccc(=O)n(C)n2)nc(SCC(N)=O)n1	-4.2%	-5	-2%	0%
COc1ccc(CCN(C)C(=O)CSc2nc3ccccc3c(=O)n2CC2CCCO2)cc1OC (centres undefined)	0.1%	.	-12%	.
CCCN1Cc2cccc(C(=O)N3CCN(c4cc(Cl)ccc4C)CC3)c2C1=O	-0.3%	-8	-13%	7%
Cc1cc(OCC(=O)O/N=C(\N)c2ccccc2)ccc1Br	1.0%	-6	-2%	-48%
Cc1ccc(Cl)c(OCC(=O)N2CCc3ccccc3C2)c1	-0.6%	.	5%	-63%
O=c1cc(-c2cccc3ccccc23)[nH][nH]1	-1.8%	-10	-1%	-3%
CCOc1ccc(S(=O)(=O)N2CCN(C(=O)Cc3n[nH]c(=O)c4ccccc34)CC2)cc1	2.6%	.	38%	.
N#C/C(=C\c1ccc(-c2cccc(Cl)c2)o1)C(=O)Nc1cccc2cccnc12	0.7%	-7	-14%	-5%
COc1ccc(C(=O)N2c3ccccc3C=CC2C#N)cc1 (centres undefined)	-3.3%	-6	3%	23%
Cc1noc(C)c1S(=O)(=O)NCC(=O)O	0.7%	0	2%	0%
Clc1ccccc1-c1ccc(/C=N/n2cnnc2)o1	-5.5%	-2	4%	-11%
COc1ccc(-c2cc(CCC(=O)N3CCN(c4cc(C)ccc4C)CC3)[nH]n2)cc1	-0.1%	.	-6%	.
CCC1CCCCN1CC(=O)c1c(C)[nH]c2ccc(OC)cc12 (centres undefined)	0.3%	-2	-8%	0%
O=C(CN1C(=O)NC(c2ccccc2)(c2ccccc2)C1=O)NCC(=O)Nc1ccc(F)cc1	0.2%	.	-5%	.
CCN1CCN(c2nc(Nc3cccc(F)c3)nc(N)c2[N+](=O)[O-])CC1	-4.2%	-6	-4%	-5%
CCOC(=O)c1cc(S(=O)(=O)N2CCc3ccccc32)cn1C	-1.6%	.	-6%	3%
Cc1ccc(C(=O)Nc2ccc(O)cc2C(=O)O)cc1	-0.4%	2	0%	9%
COCCn1c(Cc2ccccc2)nnc1SCC(=O)N1CCOCC1	2.4%	0	8%	2%
O=C(COc1ccc2c3c(c(=O)oc2c1)CCCC3)N[C@@H](Cc1ccccc1)C(=O)O	4.7%	.	-11%	0%
Oc1c(Br)cccc1/C=N/c1ncn[nH]1	?	.	-22%	-4%
O=C(COc1ccc(Cl)cc1Cl)NCc1ccncc1	-1.4%	-1	4%	-5%
O=C(Nc1ccnn1C1CCN(Cc2cccc(OCCO)c2)CC1)C1CCOC1 (centres undefined)	6.6%	.	31%	-1%
CCCCCOC(=O)NC1CCS(=O)(=O)C1 (centres undefined)	-3.3%	1	0%	-5%
CCn1c(CNc2cccc(Cl)c2)nnc1SCC(=O)OC1CCCCC1	1.2%	-14	5%	6%
Clc1ccc(-c2c[n+](Cc3ccc(Br)cc3)c3n2CCCCC3)cc1	0.0%	-10	1%	?
Cc1ccccc1C(=O)Nc1ccc(O)cc1C(=O)O	-0.7%	7	16%	1%

Next part.
SMILES	Rango-impB inh	GLA inh pH 4.5	Rango release inh	miR-21 reporter
O=C(c1ccc(F)cc1Cl)N1CCN(S(=O)(=O)c2cccs2)CC1	1.3%	.	2%	-1%
COc1ccc(C(CNC(=O)COc2c(C)cc(C)cc2C)N2CCOCC2)cc1 (centres undefined)	3.4%	.	12%	.
Cn1nc(NC(=O)C2CCC2C(=O)O)c2c(F)cccc21 (centres undefined)	-0.8%	-1	-10%	-3%
O=C(NCc1ccco1)c1ccc(Cl)c(S(=O)(=O)Nc2ccccc2)c1	-2.3%	5	-2%	1%
COc1cc2c(cc1OC)C(c1cc(OC)c(OC)c(OC)c1)C1(O)C(=O)OCC1(O)C2 (centres undefined)	-0.2%	.	-4%	.
Cc1ccccc1N/N=C/c1c(C)nc2ccccn12	?	.	?	-4%
Cc1ccc(SCC(=O)Nc2ccccc2C(=O)N2CCOCC2)cc1	-1.0%	-4	-11%	-7%
CCCc1cc(C(=O)NNC(=S)Nc2cccc(C)c2)cs1	-1.5%	-6	-6%	-66%
N#CCSc1nc2c(cc1C#N)CCCC2	-3.3%	2	3%	-39%
Cc1ccc(NC(=O)c2cccc(S(=O)(=O)NCc3ccccc3)c2)nc1	-1.3%	.	-1%	.
COc1cc(C(=O)N=c2sc3ccccc3n2C)cc(OC)c1OC	4.5%	6	-5%	-24%
O=C(NC1CCCc2ccccc21)c1c(F)cccc1Cl (centres undefined)	-0.2%	.	-10%	1%
COc1ccc(C(=O)NCC(=O)N2CCN(c3ncccn3)CC2)cc1OC	-6.2%	.	2%	.
O=C(c1cc(-c2ccccn2)nc2ccccc12)N1CCN(c2ncccn2)CC1	-0.7%	5	-7%	-3%
NC(=O)c1ccsc1NC(=O)Cc1ccc([N+](=O)[O-])cc1	5.0%	2	12%	-22%
CC1=C(C#N)C(=O)OC(C)(C)C1	?	4	?	-4%
COc1ccc(-c2cc(C(F)F)n3ncc(C(=O)Nc4cc(C)on4)c3n2)cc1	?	0	13%	17%
O=C1C=CC(c2ccccc2)(c2ccccc2)CC1	3.3%	.	9%	.
COc1cccc(NC(=O)c2ccc(-n3cnnn3)cc2)c1	2.5%	.	-1%	-10%
Cc1ccc2[nH]c3c(N4CCCCCC4)ncnc3c2c1	.	-1	.	13%
CCN(CC)CCn1c(SCC(=O)Nc2cccc(OC)c2)nc2c(sc3ccccc32)c1=O	-2.1%	-8	11%	-14%
COc1ccc(NC(=O)CN(C)C(=O)c2oc3c(ccc4ccccc43)c2C)cc1	-1.4%	.	-11%	.

High-throughput results deposited in PubChem by National Center for Advancing Translational Sciences (NCATS).

This is a subset. The share of hits here may be higher or lower than overall.
